# Assay outcomes as filed in PubChem BioAssay.
# YopH inh = inhibitors of Yersinia enterocolitica YopH tyrosine phosphatase | fluorescence Ex485/Em525 | inhibition, %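 (about 10 µM by stock and volumes)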 | 140,000 tested, 0.16% active;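 active = inhibition of 50% or more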;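 also: controls were vehicle for no effect and minimum signal wells for full effect; inactives centre near -20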
# Mtb bLac sens = beta-lactam sensitization of Mtb H37Rv; M. tuberculosis H37Rv growth with meropenem, percent inhibition; hits of this screen are not shown here; inhibition, % at 25 µM; 330,000 tested, 0.27% active; AID 434955;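 active = about 74% or more and at least 40 points above the plate without the antibiotic, then above 30% in a dose series; inconclusive = first-round hits that could not be retested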;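 also: growth measured after seven days incubation then overnight dye step; 0% = bacteria only wells and 100% = bacteria with antibiotic; twin plates without the antibiotic show which effects depend on it; some results filed as inactive read as strong as hits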
# Mtb H37Rv = M. tuberculosis H37Rv growth inhibitors, H37Rv strain (AID 1626). M. tuberculosis H37Rv growth inhibition; higher % means a stronger effect. inhibition, % at 10 µM, or IC50 in µM where a hit was titrated. 220,000 tested, 0.95% active;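 active = confirmed in a dose series; inconclusive = inhibition above 80% but not taken into the dose series; inactive = below 80% or under 30% at every dose of the series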;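 also: bacteria incubated seven days before Alamar blue readout; 0% = bacteria only wells and 100% = bacteria with antibiotic wells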
# RecA intein inh = inhibitors of M. tuberculosis RecA intein splicing | 290,000 tested, 0.75% active | inhibition, %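 (about 9 µM by stock and volumes)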 | cell-free RecA intein splicing, fluorescence; in the data active = inhibition above about 30%; inconclusive = no clear call, values can overlap the other calls;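 also: 0% = vehicle wells and 100% = reference inhibitor control wells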
# Target sequence (P9WHJ3 whole entry, looked up): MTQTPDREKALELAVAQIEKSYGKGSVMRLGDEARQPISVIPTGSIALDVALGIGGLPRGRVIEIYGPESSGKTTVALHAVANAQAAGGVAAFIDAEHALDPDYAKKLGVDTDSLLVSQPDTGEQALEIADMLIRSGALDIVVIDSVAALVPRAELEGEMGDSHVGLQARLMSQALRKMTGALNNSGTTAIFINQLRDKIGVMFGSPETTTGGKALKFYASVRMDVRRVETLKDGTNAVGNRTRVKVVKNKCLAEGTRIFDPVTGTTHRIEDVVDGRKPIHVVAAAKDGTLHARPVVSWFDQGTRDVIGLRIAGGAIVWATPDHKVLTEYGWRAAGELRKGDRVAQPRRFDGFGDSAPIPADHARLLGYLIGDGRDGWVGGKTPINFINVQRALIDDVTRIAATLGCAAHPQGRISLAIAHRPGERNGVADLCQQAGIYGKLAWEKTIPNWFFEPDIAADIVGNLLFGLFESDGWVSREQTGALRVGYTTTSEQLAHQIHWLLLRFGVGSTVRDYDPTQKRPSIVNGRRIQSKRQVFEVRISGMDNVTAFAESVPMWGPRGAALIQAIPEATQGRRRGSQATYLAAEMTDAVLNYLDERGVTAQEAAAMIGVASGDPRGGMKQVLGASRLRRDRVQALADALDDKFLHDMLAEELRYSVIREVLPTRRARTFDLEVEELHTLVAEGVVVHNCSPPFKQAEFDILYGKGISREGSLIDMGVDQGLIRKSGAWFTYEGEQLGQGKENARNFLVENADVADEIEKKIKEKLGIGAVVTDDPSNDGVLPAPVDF
# Arbovirus anti = arbovirus infection inhibition | 200,000 tested, 0.37% active | inhibition, % at 10 µM | AID 1251 | arbovirus infection cell-based antiviral screen;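 active = inhibition from about 30%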;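 also: bluetongue infection of BSR cells; cell survival read as ATP light after 72 h; 0% = infected wells without compound and 100% = uninfected wells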
# Arbovirus anti repeat = also measured in Arbovirus anti; calls as there; inhibition, %; measured here: 10K subset replicate screen; many hits read low in the repeat;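 first of two repeat runs on a subset; 0% = infected and 100% = uninfected wells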
# Starred values were filed as active, the others as inactive; u = inconclusive; x = no result given; & = joins results of further samples.
SMILES,YopH inh,Mtb bLac sens,Mtb H37Rv,RecA intein inh,Arbovirus anti,others
C[C@@H](CN1C2=NC[C@H](Cc3ccc(O)cc3)N2C[C@H]1Cc1ccc(O)cc1)NC(=O)CCC1CCCCC1,x,50,-2%,-2.0,5,
Cc1cccc(NC(=O)CCS(=O)(=O)c2cccc3nonc23)c1C,x,36,x,-1.2,x,
Cc1cc2ccccc2c(=O)n1CC(=O)NCCC1=CCCCC1,x,2,-7%,-1.1,1,
O=C(O)CN1C(=O)CSc2ccccc21,8,-7,-9%,-0.3,6,
Cc1ccc(C(=O)N/N=C\c2ccccc2[N+](=O)[O-])cn1,x,x,5%,0.8,1,
Cc1ccc(NS(=O)(=O)c2c(C)[nH]c(=O)[nH]c2=O)cc1C,-15,1,-6%,2.5,4,
CCOc1nc(-c2ccc(C)cc2)ccc1-c1noc(COC)n1,2,2,2%,-0.8,-7,
CN(C1(C)CCS(=O)(=O)C1)S(=O)(=O)c1ccc2ccccc2c1 (centres undefined),x,-7,x,2.6,x,
CCc1noc(C)c1C(=O)Nc1ccc(S(=O)(=O)N2CCCCC2)cc1,x,-7,x,1.4,x,
COc1ccc2nc(SCc3ccccc3C)nc(C)c2c1,-16,1,3%,-1.3,5,
FC(F)(F)c1cccc(N2Cc3ccccc3C2)c1,-37,-6,-4%,2.4,-3,
FC(F)(F)c1ccc(NC(=S)NCc2ccccc2)cc1,x,-2,6%,3.1,-1,

# Continued, starting with the last 6 of the part before.
SMILES,YopH inh,Mtb bLac sens,Mtb H37Rv,RecA intein inh,Arbovirus anti,others
CCOc1nc(-c2ccc(C)cc2)ccc1-c1noc(COC)n1,2,2,2%,-0.8,-7,
CN(C1(C)CCS(=O)(=O)C1)S(=O)(=O)c1ccc2ccccc2c1 (centres undefined),x,-7,x,2.6,x,
CCc1noc(C)c1C(=O)Nc1ccc(S(=O)(=O)N2CCCCC2)cc1,x,-7,x,1.4,x,
COc1ccc2nc(SCc3ccccc3C)nc(C)c2c1,-16,1,3%,-1.3,5,
FC(F)(F)c1cccc(N2Cc3ccccc3C2)c1,-37,-6,-4%,2.4,-3,
FC(F)(F)c1ccc(NC(=S)NCc2ccccc2)cc1,x,-2,6%,3.1,-1,
COC(=O)c1cccnc1NC(=S)NC1CCCCC1,x,48,4%,1.4,0,
Cc1cc(-c2csc(N)n2)c(C)n1-c1ccc(Cl)c(Cl)c1,4,-3,41%,9.3,0,
CCNC(=O)/C(C#N)=C/c1c(N(Cc2ccccc2)Cc2ccccc2)nc2ccccn2c1=O,-8,3,12%,8.7,-32,
CC1CCCC(NC(=O)COC(=O)/C=C/c2ccc(S(=O)(=O)N3CCOCC3)cc2)C1C (centres undefined),x,-1,10%,2.4,x,
Cc1nc2ccccc2c(=O)n1/N=C/c1ccncc1,0,-4,-6%,x,4,
Cc1ccc(C(=O)Nc2ccccc2N2CCN(C(=O)C(C)C)CC2)cc1,-23,-2,0%,0.4,-4,
Cc1c(C(=O)OCC(=O)NC(C)c2ccccc2)oc2ccccc12 (centres undefined),x,-4,x,0.0,x,
COc1ccc(C(=O)NCC(=O)N2CCNC(=O)C2)cc1OC,x,13,x,-0.8,x,
C[n+]1ccccc1/C=N/O,-21&-35,5&-1,3%&-2%,1.5&0.3,-4&1,
O=C(c1cc(COc2ccc(F)cc2Cl)on1)N1CCN(c2cnccn2)CC1,x,u,x,3.6,x,
C=C(C(=O)c1ccccc1)C(C)CC(=O)c1ccccc1 (centres undefined),-31,88,-8%,3.2,-21,
O=C(CSCc1ccc(Cl)cc1)Nc1cccc(C(=O)Nc2ccccc2C(=O)O)c1,-5,-6,-2%,7.0,36*,

# A draw from above in order of SMILES length, rising:
SMILES,YopH inh,Mtb bLac sens,Mtb H37Rv,RecA intein inh,Arbovirus anti,others
COc1ccc(C(=O)NCC(=O)N2CCNC(=O)C2)cc1OC,x,13,x,-0.8,x,
Cc1cc(-c2csc(N)n2)c(C)n1-c1ccc(Cl)c(Cl)c1,4,-3,41%,9.3,0,
CC1CCCC(NC(=O)COC(=O)/C=C/c2ccc(S(=O)(=O)N3CCOCC3)cc2)C1C (centres undefined),x,-1,10%,2.4,x,

# Remaining list, next part.
SMILES,YopH inh,Mtb bLac sens,Mtb H37Rv,RecA intein inh,Arbovirus anti,others
O=C1Cc2ccccc2Sc2ccc(O)cc21,-19,5,32%,-0.4,1,
COc1ccc(C2SCC(=O)N2c2nc3ccccc3s2)cc1 (centres undefined),x,9,16%,0.8,20,
COc1ccccc1C(=O)N/C(=C/c1ccc(Br)cc1)C(=O)NCCCn1ccnc1,x,-3,x,-0.1,x,
CC(C)CC(c1nnnn1C(C)(C)C)N1CCN(Cc2ccccc2)CC1 (centres undefined),x,1,2%,1.3,9,
CC(C)C(=O)Nc1ncc(Cc2cccc(Cl)c2)s1,x,20,18%,2.6,-23,
CCOc1ccc(-n2nnc3c(=O)n(CC(=O)c4ccccc4)cnc32)cc1,-30,1,4%,-0.7,0,Arbovirus anti repeat=-1
CC(C)C(NC(=O)c1ccccc1Cl)C(=O)OCc1nc2scc(-c3ccccc3Cl)c2c(=O)[nH]1 (centres undefined),-26,-3,-5%,9.9,7,
COc1ccc(OCc2cc(/C=N\NC(=O)c3ccccc3)ccc2OC)cc1,x,-10,x,2.7,x,
O=C(c1ccc(COc2ccc(Br)cc2)o1)N1N=C(C(F)F)CC1(O)C(F)F (centres undefined),-29,-3,-2%,0.1,20,
Cc1sc(NC(=O)CSc2nnc(COc3ccccc3)n2C)c(C#N)c1C,-150,2,-5%,-1.9,-10,
COCCN(C(=S)Nc1ccc(OC)cc1)C(C)c1cccs1 (centres undefined),-24,-11,-4%,-0.7,-5,
CC1=C(C)/C(=N\OC(=O)/C=C/c2ccccc2)C=CC1=O,-24,100,0%,38*,-29,
COc1cccc(CNC(=O)COC(=O)CN(C)S(=O)(=O)c2ccc(NC(C)=O)cc2)c1,x,-9,x,0.8,x,
COC(=O)c1ccc(NC(=O)c2ccccc2N(C)S(=O)(=O)c2ccccc2)cc1,11,2,x,1.8,-1,
O=C(NCC1CCCO1)C(c1cccnc1)N(C(=O)Cc1cccs1)c1cccnc1 (centres undefined),-23,6,3%,-0.2,2,
O=C(Nc1ccc(N2C(=O)CCC2=O)cc1Cl)c1cccs1,x,3,-5%,-1.8,1,
COc1cccc(CNC(=O)CC(NC(=O)c2ccccc2)c2ccccc2)c1 (centres undefined),x,-7,x,-1.1,x,
COc1cc(-c2nc3cnccn3c2Nc2ccccc2)ccc1O,-3,6,9%,-4.5,-16,Arbovirus anti repeat=-10
CCOc1cccc(CN(C)CC2CCCN(CCc3ccc(Cl)cc3)C2)c1O (centres undefined),x,0,x,-0.3,x,
CC1CC1C(=O)N(CCC1=CCCCC1)c1c(N)n(Cc2ccccc2)c(=O)[nH]c1=O (centres undefined),x,2,x,0.0,x,
CCOC(=O)c1cnc2ccccc2c1NCCc1ccc(OC)c(OC)c1,-20,-6,0%,2.3,5,
NC(=O)c1ccc(N2CCCCC2)c(N2C(=O)CCC2=O)c1,-35,-8,-9%,-1.5,0,Arbovirus anti repeat=0
COc1ccc2oc(C(F)(F)C(F)F)cc(=O)c2c1,-39,-8,3%,2.6,4,
COc1ccc(N=C2NC(=O)/C(=C/c3ccco3)S2)cc1,x,-4,-2%,2.0,x,

# As a working copy, two of the compounds above.
SMILES,YopH inh,Mtb bLac sens,Mtb H37Rv,RecA intein inh,Arbovirus anti,others
COc1cccc(CNC(=O)COC(=O)CN(C)S(=O)(=O)c2ccc(NC(C)=O)cc2)c1,x,-9,x,0.8,x,
COC(=O)c1ccc(NC(=O)c2ccccc2N(C)S(=O)(=O)c2ccccc2)cc1,11,2,x,1.8,-1,

# (list continues)
SMILES,YopH inh,Mtb bLac sens,Mtb H37Rv,RecA intein inh,Arbovirus anti,others
CCOc1ccc(NCC(=O)Nc2ccc(C)cc2C)cc1,-3,99,62µM*,-0.3,-2,
Cc1cc(NC(=O)COC(=O)C2CCN(S(=O)(=O)c3cccc(Cl)c3Cl)CC2)no1,-1,-10,-3%,-0.4,0,
Cc1ccc(NC(=O)C2(NC(=O)c3ccccn3)CCCCC2)cc1Br,-35,24,7%,4.5,11,
Cc1ccc(CC(=O)N2CCN(c3cccc(C(F)(F)F)c3)CC2)cc1,-13,14,-13%,1.4,-10,
CCOC(=O)C1(c2ccccc2)CCN(CCC(C#N)(c2ccccc2)c2ccccc2)CC1,x,8,18%,25,x,
CCOC(=O)NC(=O)COC(=O)CCCSc1nc2ccccc2s1,x,-6,-7%,1.0,3,
CCc1cccc(C)c1NC(=O)COC(=O)CNC(=O)c1cccs1,x,-2,x,-3.7,x,
Cc1ccc(-c2cnc(N)n2C)cc1C,3,7,-5%,14,-3,
CCOC(=O)C1(Cc2ccc(OC)cc2)CCN(C(=O)Cc2cccnc2)CC1,x,6,1%,1.1,0,
Cc1onc(-c2ccccc2)c1C(=O)N1CCN(C/C=C/c2ccccc2)CC1,-32,0,0%,5.5,0,Arbovirus anti repeat=-7
CCOC(=O)c1oc2ccccc2c1NC(=O)c1cccc(OC)c1OC,7,u,12%,12,-15,
COc1ccc(/C=C(/NC(=O)c2ccc(C)cc2)C(=O)NCc2ccncc2)cc1,x,7,x,-0.2,x,

# Brought forward from above: 3 compounds, then new ones.
SMILES,YopH inh,Mtb bLac sens,Mtb H37Rv,RecA intein inh,Arbovirus anti,others
Cc1onc(-c2ccccc2)c1C(=O)N1CCN(C/C=C/c2ccccc2)CC1,-32,0,0%,5.5,0,Arbovirus anti repeat=-7
CCOC(=O)c1oc2ccccc2c1NC(=O)c1cccc(OC)c1OC,7,u,12%,12,-15,
COc1ccc(/C=C(/NC(=O)c2ccc(C)cc2)C(=O)NCc2ccncc2)cc1,x,7,x,-0.2,x,
O=S(=O)(c1ccc(OCC(O)CN2CCc3ccccc3C2)cc1)N1CCOCC1 (centres undefined),36,7,-3%,5.8,6,
C/C(=N\Nc1cccc(Cl)c1)C1(C)N(O)C(C)(C)C(c2ccco2)=[N+]1[O-] (centres undefined),x,-7,-1%,0.3,x,
O=C(/C=C/c1ccc(Cl)cc1Cl)Nc1ccncc1,-23,5,5%,0.8,-28,
CCOC(=O)N1CCN(C(=S)NC(=O)c2ccc(Br)cc2)CC1,x,83,u,18,2,
CCc1ccc2[nH]cc(C(=O)OCCOC)c(=O)c2c1,-7,-10,-3%,-1.4,-2,Arbovirus anti repeat=4
Cc1ccc(C)c(C(C)NC(=O)C2C3CCC(O3)C2C(=O)O)c1 (centres undefined),-13,-5,-11%,-0.4,2,
COc1ccc(S(=O)(=O)N2CCN(c3ccccc3)CC2)cc1C(=O)N1CCCC1,x,-1,x,-1.0,x,
CCOc1ccc(S(=O)(=O)N2CCCC(C(=O)Nc3cccc(C)c3)C2)cc1 (centres undefined),x,-4,x,0.8,x,
O=c1cc(-c2cccc(Cl)c2)oc2cccc(O)c12,x,-1,-13%,-0.1,x,
Cc1ccc(NC(=O)Nc2cccn(Cc3c(F)cccc3Cl)c2=O)cc1,x,0,2%,-1.4,-4,
COC(=O)C1=C(Nc2ccccc2NC(=O)c2ccccc2C(=O)O)CSC1,x,7,-3%,-20,x,
CCOP(=O)(/C(C#N)=C(\C)O)c1ccccc1 (centres undefined),x,4,5%,2.7,7,

# Some of the compounds tested (hit frequency here may not be typical).
